From PubChem BioAssay
GALR2 agonist = GALR2 (human) receptor agonism. O43603. GALR2-expressing cells, agonist activation read-out. activation, %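 (tested at 5 µM)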. hit rate 0.48% among 140,000. AID 803;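 active = above mean plus 3 SD of all compounds, about 5% in these data, not always enough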;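 note: 0% = vehicle buffer wells and 100% = reference agonist at full effect; tested in CHO reporter cells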
Target sequence (O43603 whole entry, looked up): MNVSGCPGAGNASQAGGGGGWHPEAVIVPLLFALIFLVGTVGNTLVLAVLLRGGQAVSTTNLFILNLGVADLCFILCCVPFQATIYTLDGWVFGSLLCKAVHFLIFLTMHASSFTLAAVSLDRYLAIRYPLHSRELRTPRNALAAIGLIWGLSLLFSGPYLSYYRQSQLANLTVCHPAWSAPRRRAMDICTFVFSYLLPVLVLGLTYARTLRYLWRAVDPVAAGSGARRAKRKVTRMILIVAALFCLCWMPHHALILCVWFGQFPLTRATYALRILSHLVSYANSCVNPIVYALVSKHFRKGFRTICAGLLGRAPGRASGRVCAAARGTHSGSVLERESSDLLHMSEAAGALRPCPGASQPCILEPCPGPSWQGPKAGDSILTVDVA
HSV replic up = HSV replication enhancement; hit rate 0.005% among 220,000; AID 1956; maximum fold increase; HSV replication augmentation in cells, fold increase;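 active = peak rise of 1.5-fold or more in the series; tested in PC3 cells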;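 note: first round at 10 µM; read as green reporter fluorescence; hits show the peak of a series up to 25 µM; 1 = signal of infected wells without compound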
Insulin prom inh = TRM-6 insulin promoter activity inhibition | TRM-6 cells (human fetal islet line), insulin promoter-eGFP reporter, imaging; reporter expression induced with tamoxifen | inhibition, % at 2 µM | hit rate 0.9% among 130,000 | AID 1273;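 active = inhibition above the mean plus 3 SD, with well images judged a real hit on visual review, cut at about 60% in these data, passing the limit was not always enough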
PKD1 kinase inh = blocks activity of human protein kinase D1. PKD1 kinase fluorescence polarization assay. inhibition, %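 (about 10 µM by stock and volumes)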. Q15139. hit rate 0.056% among 200,000. AID 797;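 active = inhibition of 50% or more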;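 note: controls were vehicle for no effect and a reference inhibitor for full effect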
RGS16-Gao = RGS16-Galphao interaction regulator (human). O15492+P09471. bead-based flow cytometry RGS16-Galphao binding, fluorescence; actives lie on both sides. binding response (% of control), % at 10 µM. hit rate 0.38% among 220,000;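 active = below 25% or above 175%, edge rows of some plates excepted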;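 note: Galphao activated by GDP with aluminum fluoride before binding; 100% = wells without compound and 0% = beads without RGS; some results beyond the cut were filed as inactive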
Target sequence (O15492 whole entry, looked up): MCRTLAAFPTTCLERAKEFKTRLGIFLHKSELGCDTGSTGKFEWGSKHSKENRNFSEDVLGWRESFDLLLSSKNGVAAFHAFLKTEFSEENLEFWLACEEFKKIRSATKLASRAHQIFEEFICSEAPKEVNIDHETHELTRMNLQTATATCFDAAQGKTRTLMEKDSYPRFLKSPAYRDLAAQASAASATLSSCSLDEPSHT
Target sequence (P09471 whole entry, looked up): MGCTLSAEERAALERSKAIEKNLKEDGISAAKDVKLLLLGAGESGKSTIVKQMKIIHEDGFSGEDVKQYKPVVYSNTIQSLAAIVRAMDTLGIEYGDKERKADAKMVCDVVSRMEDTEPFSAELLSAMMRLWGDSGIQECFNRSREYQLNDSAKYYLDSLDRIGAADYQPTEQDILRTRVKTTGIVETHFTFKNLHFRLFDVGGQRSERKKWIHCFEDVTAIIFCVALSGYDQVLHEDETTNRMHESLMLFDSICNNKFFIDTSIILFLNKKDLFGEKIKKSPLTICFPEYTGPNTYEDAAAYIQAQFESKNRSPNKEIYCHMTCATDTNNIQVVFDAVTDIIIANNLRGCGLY
Insulin prom inh cell count = recorded beside Insulin prom inh, whose call it bears; normalized cell count, %; measured here: cell count, toxicity; reference of the scale not given here;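 cells exposed to compound for 48 h; stained nuclei by imaging scaled within each plate; lower means fewer cells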
HSV replic up primary fold = further read-out of HSV replic up, marked with its call; fold increase; compound at 10 µM; measured here: primary screen fold increase 10 uM; tested in PC3 cells;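 GFP signal in the first replicate; 1 = infected wells without compound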
* marks the source's active call; other numbers are inactive results; i = inactive; nt = no result given. Not a hit list; any-hit rate near 1.1%.

Structure | RGS16-Gao | HSV replic up | Insulin prom inh cell count | HSV replic up primary fold | Insulin prom inh | GALR2 agonist | PKD1 kinase inh
COC(=O)C1=C(C)OC(N)=C(C#N)C1c1cc(OC)ccc1OC (stereo unspecified) | 103 | i | nt | 1.3 | nt | -1.5 | 2
CCOCCCNC(=S)N1C2CCC1CC(NC(=O)Nc1ccc(C(=O)OCC)cc1)C2 (stereo unspecified) | 107 | i | nt | 1.1 | nt | nt | -1
CCCCc1nc2c(=O)[nH]c3ccccc3c2o1 | 99 | i | nt | 0.84 | nt | -1.1 | -5
O=C(Nc1cccnc1)c1ccc2nc(-c3ccccc3)c(-c3ccccc3)nc2c1 | 102 | i | 84 | 0.93 | 8 | nt | -3
CC(NC(=O)c1cc(-c2ccc(Br)cc2)on1)c1ccccc1 (stereo unspecified) | 100 | i | 90 | 0.85 | -35 | -1.7 | 2
Cc1ccc(-n2c(SCC(=O)O)nc3sc4c(c3c2=O)CCCC4)cc1 | 104 | i | nt | 0.95 | nt | nt | -4
COc1ccc(-n2nc3c(c2NC(=O)C2CCCC2)CS(=O)C3)cc1 (stereo unspecified) | 105 | i | nt | 0.95 | nt | -3.7 | -1
COc1cccc(-n2nc3c(=O)n(Cc4ccccc4Cl)nc(C)c3c2C)c1 | 93 | i | 97 | 0.96 | -29 | 0.8 | -12
CCCC1(C(=O)OCC)NC(c2ccc(N(C)C)cc2)C2C(=O)N(c3ccccc3)C(=O)C21 (stereo unspecified) | 101 | i | 86 | 1 | -108 | -1.1 | 5
Cn1ncc2nnn(-c3ccccc3)c(=O)c21 | 96 | i | nt | 0.88 | nt | -2.1 | -2
Cc1ccc(NC(=O)Cn2cncc2-c2ccc([N+](=O)[O-])cc2)cc1C | 105 | nt | 64 | nt | 3 | 1.4 | -5
O=C(COC(=O)c1cccnc1Cl)NCc1ccc2c(c1)OCO2 | 104 | i | 140 | 0.97 | 9 | -0.9 | -2
Cc1csc(NC(=O)c2nn(C)c(C)c2[N+](=O)[O-])n1 | 113 | i | 42 | 1 | 33 | -2.2 | 3
CC1CCCN(C(=O)CSc2nnc(-c3cccnc3)n2C2CCCCC2)C1 (stereo unspecified) | 102 | i | 103 | 1.1 | -66 | -2.7 | -9
C=CCn1cccc(C(=O)Nc2ccc(OC)cc2)c1=O | 102 | i | nt | 0.96 | nt | nt | -3
Cc1cc(Br)ccc1SCC(=O)Nc1cccnc1 | 87 | i | nt | 0.83 | nt | nt | 1
O=C(c1cc(COc2ccc3ncccc3c2)on1)N1CCCC(O)C1 (stereo unspecified) | 99 | i | nt | 1.1 | nt | nt | 0
Cc1nc2ccc(N=NC3=C(O)CCCC3=O)cc2s1 | 121 | i | 92 | 1.1 | -16 | -0.3 | 10
CCCc1nc(-c2ccc(-c3ccc(F)cc3)cc2)no1 | 114 | i | 96 | 0.92 | -39 | -1.4 | -2
NC(=O)c1c(N)sc2c1CCC2 | 100 | i | nt | 1.4 | nt | nt | 3
Cn1c(SCC(=O)Nc2ccc3c(c2)oc2ccccc23)nnc1-c1ccccc1 | 96 | i | 143 | 1 | 23 | -3.5 | -7
CCN1CCCC1Cn1cnc2c([nH]c3ccc(OC)cc32)c1=O (stereo unspecified) | 110 | i | nt | 0.92 | nt | nt | nt
Cn1c(SCc2cc(=O)n3cc(Br)ccc3n2)nnc1C1COc2ccccc2O1 (stereo unspecified) | 98 | i | nt | 1.2 | nt | -2.3 | -1
Cc1cc(C)nc(N2CCCC(C(=O)Nc3ccc4nc(C)c(C)nc4c3)C2)n1 (stereo unspecified) | 110 | i | nt | 1.2 | nt | -0.7 | -12
O=C(c1ccc(Cl)c([N+](=O)[O-])c1)N1CCN(c2ccccc2)CC1 | 59 | i | 49 | 0.9 | -4 | nt | -3
COc1cc(C)c(Br)cc1S(=O)(=O)NCCCN1CCOCC1 | 103 | i | nt | 0.87 | nt | nt | 1
COC(=O)c1cccn(CC(=O)c2ccc(Cl)cc2)c1=O | 102 | i | nt | 1 | nt | nt | -4
O=C(CSc1ccccn1)Nc1ccc(F)c([N+](=O)[O-])c1 | 104 | i | nt | 1.1 | nt | nt | 4
CCN(CC)C(=O)NC1CC(=O)N(c2ccc(OC)cc2)C1 (stereo unspecified) | 108 | i | nt | 1.2 | nt | -0.2 | 2
Cn1cc2c(=O)n(/N=C/c3ccccc3)cnc2n1 | 132 | i | 88 | 0.88 | 0 | -0.7 | -18

5 entries out of the list, sorted by length of the SMILES, lowest first.
Structure | RGS16-Gao | HSV replic up | Insulin prom inh cell count | HSV replic up primary fold | Insulin prom inh | GALR2 agonist | PKD1 kinase inh
COC(=O)c1cccn(CC(=O)c2ccc(Cl)cc2)c1=O | 102 | i | nt | 1 | nt | nt | -4
O=C(COC(=O)c1cccnc1Cl)NCc1ccc2c(c1)OCO2 | 104 | i | 140 | 0.97 | 9 | -0.9 | -2
Cc1ccc(NC(=O)Cn2cncc2-c2ccc([N+](=O)[O-])cc2)cc1C | 105 | nt | 64 | nt | 3 | 1.4 | -5
O=C(Nc1cccnc1)c1ccc2nc(-c3ccccc3)c(-c3ccccc3)nc2c1 | 102 | i | 84 | 0.93 | 8 | nt | -3
CCOCCCNC(=S)N1C2CCC1CC(NC(=O)Nc1ccc(C(=O)OCC)cc1)C2 (stereo unspecified) | 107 | i | nt | 1.1 | nt | nt | -1

(further entries)
Structure | RGS16-Gao | HSV replic up | Insulin prom inh cell count | HSV replic up primary fold | Insulin prom inh | GALR2 agonist | PKD1 kinase inh
NC(=O)c1ccccc1NC(=O)CCN1C(=O)c2ccccc2C1=O | 99 | i | 79 | 0.92 | 0 | -2.1 | -2
CCOC(=O)C(C)c1nn(C)c(=O)c2ccccc12 (stereo unspecified) | 129 | i | 129 | 1.1 | -68 | -0.6 | -9
NNc1nc(-c2ccccc2Cl)nc2sc3c(c12)CCCC3 | 97 | nt | 105 | nt | -18 | 0.9 | 3
O=[N+]([O-])c1cccc(-c2nnc(SCc3cccnc3)o2)c1 | 103 | i | nt | 0.89 | nt | nt | -3
O=C(NCc1ccco1)C1CCCN(S(=O)(=O)c2ccc(Cl)cc2)C1 (stereo unspecified) | 110 | i | nt | 0.68 | nt | -1.2 | 7
CN(Cc1ccccc1)C(=O)C1CCN(Cc2ccc(F)cc2)CC1 | 102 | i | 78 | 0.99 | 23 | 0.2 | -14
COC(=O)c1sc(-c2cccs2)cc1NC(=O)/C=C/C(=O)O | 113 | i | nt | 0.89 | nt | nt | nt
Cc1cccc(N2CCN(C(=O)C(C)n3nc(C)n4c(cc5occc54)c3=O)CC2)c1C (stereo unspecified) | 113 | i | 119 | 0.93 | 7 | -1.8 | -2
COC(=O)c1ccc(S(=O)(=O)N(CCO)Cc2ccccc2)n1C | 101 | i | nt | 1.1 | nt | nt | nt
COc1ccc(NC(=O)CN2CCCC(C)C2)c([N+](=O)[O-])c1 (stereo unspecified) | 90 | i | 77 | 0.97 | -9 | -1.6 | 2
CC(C)Sc1nnc([C@H](C)NC(=O)OC(C)(C)C)o1 | 101 | i | nt | 0.94 | nt | -1.9 | 4
Fc1ccc2[nH]c3c(N4CCN(Cc5ccc6c(c5)OCO6)CC4)ncnc3c2c1 | nt | nt | 148 | nt | 3 | -0.4 | 3
CNC(=O)CSc1nc2nn(-c3ccccc3)c(=O)c-2c2n1CCCCC2 | 103 | i | 98 | 0.92 | 16 | -1.5 | 3
S=c1[nH]c2cc(-c3ccccc3)ccc2o1 | 99 | i | nt | 0.91 | nt | nt | nt
CCOCCCNC(=O)C1CCN(S(=O)(=O)N2CCCCC2)CC1 | 104 | nt | nt | nt | nt | 6.1 | -4
O=C(CNC(=O)C12CC3CC(CC(C3)C1)C2)OCc1cc(=O)n2cc(Br)ccc2n1 | 103 | i | nt | 0.97 | nt | nt | 7
O=c1c2c(nc3nc(NCc4ccc(Cl)cc4)[nH]n13)CCC2 | 105 | i | 118 | 0.96 | 8 | nt | -1
Cc1ccc(S(=O)(=O)N2CCN(C(=O)c3ccccc3)C2C(C)C)cc1 (stereo unspecified) | 99 | i | nt | 0.78 | nt | -1.8 | 0
CCOC(=O)c1c(NC(=O)C2C3C=CC(C3)C2C(=O)O)sc2c1CCC(CC)C2 (stereo unspecified) | 104 | i | 91 | 0.93 | 27 | 0.0 | 8
COC(=O)c1sc2nc(SCc3ccccc3C)n(N)c(=O)c2c1C | 65 | i | 54 | 1 | -31 | -0.4 | -2
COc1ccc(OC)c(-c2nnc(SCC(=O)N3CCCc4ccccc43)o2)c1 | 95 | i | 85 | 0.93 | -54 | -1.0 | -2
O=C1CSC(c2cn(-c3ccccc3)nc2-c2ccccc2)N1Cc1ccco1 (stereo unspecified) | 96 | i | 144 | 0.86 | -35 | -2.1 | -5
CCOC(=O)c1sc(NC(=O)CCCn2nc([N+](=O)[O-])c(Cl)c2C)c(C(=O)OCC)c1C | 112 | i | 116 | 1 | -50 | -0.1 | -2
O=C1CC(Nc2cc(=O)[nH]c(=O)[nH]2)C(=O)N1c1ccccc1Cl (stereo unspecified) | 103 | i | nt | 1.1 | nt | nt | nt
COc1ccc(N2CCN(C(=O)c3ccc4c(Cl)c5c(nc4c3)CCCC5)CC2)cc1 | 100 | i | 95 | 1 | 0 | 0.2 | -7
Cc1cc2ncc(S(=O)(=O)c3ccccc3)c(N)n2n1 | 93 | i | nt | 0.91 | nt | nt | -4
COc1ccc(C(C(=O)NCC2CCCO2)N(C(=O)CNC(=O)c2cccs2)c2ccccc2C)cc1OC (stereo unspecified) | 102 | i | 146 | 0.91 | 41 | nt | 6
O=C(Nc1ccccn1)c1cccc(S(=O)(=O)N2CCCCC2)c1 | 153 | i | 97 | 0.92 | -10 | -2.8 | -12
CC1CN(C(=S)c2cccc([N+](=O)[O-])c2)CC(C)O1 (stereo unspecified) | 99 | i | nt | 1 | nt | nt | -7
O=[N+]([O-])c1ccc(Nc2ccccc2)nc1 | 115 | i | 82 | 0.97 | 54 | -1.0 | 8
Cc1ccccc1/C=C1\SC(=S)N(/N=C/c2cc([N+](=O)[O-])ccc2O)C1=O | 102 | i | 110 | 0.99 | 20 | nt | -4
COc1ccc(/C=C/C(=O)Oc2ccc(/C=N/NC(=O)COc3c(C)cccc3C)cc2)cc1 | 107 | i | nt | 0.93 | nt | -1.7 | -12
Nc1c(C(=O)Nc2nc3ccccc3s2)sc2nc(-c3cccs3)ccc12 | 110 | nt | 64 | nt | -196 | 0.2 | -2
O=C(Nc1ccccc1)N(CCCN1CCOCC1)Cc1ccccc1F | 103 | i | 91 | 0.9 | -65 | -0.8 | 0
COC(=O)CSC1=C(C#N)C(c2cccc(OC)c2)CC(=O)N1 (stereo unspecified) | 102 | i | nt | 0.95 | nt | -4.2 | 1
COc1ccc(OC)c2sc(N3CCN(c4ccccc4)CC3)nc12 | nt | i | nt | 1.1 | nt | -0.5 | -7
CCOC(=O)C1=C(C)NC(=O)NC1c1cccs1 (stereo unspecified) | 98 | i | nt | 0.87 | nt | nt | -1
Cc1ccc(NC(=O)CSc2nc(C)c(Cc3ccccc3)c(=O)[nH]2)cc1 | 15* | i | 117 | 0.83 | -45 | nt | -5
O=C(Nc1cccnc1)C1CC(c2ccc(Cl)c(Cl)c2)=NO1 (stereo unspecified) | 102 | i | 59 | 1.1 | 63 | -0.7 | -13
COC(=O)c1ccc(CN2C(=O)c3ccccc3S2(=O)=O)cc1 | 101 | i | nt | 0.94 | nt | -0.8 | -8
Cn1c(=O)[nH]c(=O)c2c1ncn2CCN1CCCCC1 | 102 | i | 70 | 0.98 | 8 | -2.4 | -1
CCCc1nc(C)c(-c2ccc(OC)c(OC)c2)c(=O)[nH]1 | 98 | i | 58 | 0.78 | 37 | -1.8 | -3
CC(OC(=O)c1cc2c(s1)CCCCC2)C(=O)NC(N)=O (stereo unspecified) | 109 | i | nt | 1.1 | nt | 0.8 | -14
CCOC(=O)c1cccc(NC(=O)CCc2nc(-c3ccccc3F)no2)c1 | 100 | i | 69 | 0.91 | -250 | -1.3 | -6
CSC1=NC2(CCCCC2)C2=C(CCCC2)N1 | 102 | i | 113 | 0.72 | 35 | -2.9 | -9
CC(=O)C1=C(C)N(Cc2ccccc2)C(=O)N[C@H]1c1cccc(C(F)(F)F)c1 | 101 | i | 84 | 0.99 | -25 | -1.2 | -3
